Screening data (PubChem)
STK33 inh = human STK33 kinase inhibition; Q9BYT3; purified STK33, MBP phosphorylation, ADP-Glo luminescence; inhibition, % at 10 µM; 0.073% of 320,000 active; AID 2661;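 active = inhibition at or above 25%, using the most active replicate where run in duplicate; inactive = inhibition below 25%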
Target sequence (Q9BYT3 whole entry, looked up): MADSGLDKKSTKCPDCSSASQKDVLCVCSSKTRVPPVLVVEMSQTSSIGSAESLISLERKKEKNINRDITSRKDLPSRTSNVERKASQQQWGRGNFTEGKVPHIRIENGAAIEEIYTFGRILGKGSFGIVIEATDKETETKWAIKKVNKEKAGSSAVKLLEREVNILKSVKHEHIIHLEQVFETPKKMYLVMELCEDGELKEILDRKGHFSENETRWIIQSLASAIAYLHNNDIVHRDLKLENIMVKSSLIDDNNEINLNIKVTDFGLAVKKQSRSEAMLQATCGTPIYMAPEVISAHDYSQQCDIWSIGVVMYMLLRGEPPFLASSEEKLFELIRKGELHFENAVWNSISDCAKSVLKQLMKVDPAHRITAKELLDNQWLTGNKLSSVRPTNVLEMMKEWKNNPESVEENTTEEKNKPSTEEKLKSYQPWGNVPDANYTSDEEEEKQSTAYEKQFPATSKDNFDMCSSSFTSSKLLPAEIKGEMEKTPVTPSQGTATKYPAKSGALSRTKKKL
Active calls of the source: *.

SMILES	STK33 inh
O=S(=O)(c1ccc(N2CCOCC2)nc1)N(Cc1ccccn1)Cc1ccccn1	-1.6
CC1Cc2ccccc2N1S(=O)(=O)c1cccc(C(=O)OCC(=O)NC2CCS(=O)(=O)C2)c1 (stereo unspecified)	-0.2
Cc1cccc(N(CC(=O)NC(C)(C)C)C(=O)CS(=O)CC(=O)Nc2ccc3c(c2)OCO3)c1 (stereo unspecified)	1.0
CCc1ccc(C(=O)COC(=O)c2ccccc2OC)cc1	0.6
C=C(C)CN1C(=O)C2(OCCO2)c2cc(Br)ccc21	-1.5
N#Cc1ccsc1NC(=O)COC(=O)c1ccc(NC(N)=O)cc1	-0.4
Cc1ccc(-c2csc(NC(=O)C3=NN(c4ccccc4)C(=O)CC3)n2)cc1	-0.2
CCCCSCCCNC(=S)Nc1ccccc1C	-0.4
CCOc1ccc(NC(=O)CSc2nnc(Cc3cccn3C)n2-c2ccc(F)cc2)cc1	-2.8
O=S(=O)(NC1CCCCCCC1)c1ccc(F)cc1	-0.6
CCOC(=O)C1=C(C)N(CCCC(=O)O)C(=O)NC1c1ccccc1OS(=O)(=O)c1ccc([N+](=O)[O-])cc1 (stereo unspecified)	-0.3
COc1cc2[nH]c(=O)n(CCC(=O)N3CCN(c4cc(Cl)ccc4C)CC3)c(=O)c2cc1OC	-0.4
CCOC(=O)C1(Cc2cccc(OC)c2)CCN(CC2CC=CCC2)CC1 (stereo unspecified)	-3.9
CCCOC(=O)c1c(-c2ccc(C)cc2C)csc1NC(=O)C1C2CCC(O2)C1C(=O)O (stereo unspecified)	-0.8
Cc1ccn2c(NC(=O)c3ccccc3)c(-c3ccccc3)nc2c1	-0.8
Nn1c(N2CCCCC2)nc2ccccc21	-0.8
Cn1c(C(=O)N2CCCC(C(=O)c3ccc(C(F)(F)F)cc3)C2)cc(=O)n(C)c1=O (stereo unspecified)	-0.3
O=C(CN1c2cccc3cccc(c23)S1(=O)=O)NCc1ccc2c(c1)OCO2	-0.9
COc1ccc(F)cc1C(=O)C1CCCN(Cc2cccn2-c2ccccn2)C1 (stereo unspecified)	-0.5
COc1ccc(/C=N/NC(=O)c2cccnc2)c(C(=O)O)c1OC	0.0
COc1cc2c(cc1OC)C(COc1ccc(C(C)C)cc1)NCC2 (stereo unspecified)	-0.8
CCCOc1cccc(-c2nnc(N)s2)c1	1.2
CCOC(=O)N1CCC2(CC1)C(C#N)=C(N)Oc1c2c(C)nn1-c1cccc(Cl)c1	0.4
CCn1c(=NC(=O)CSC(C)=O)sc2ccccc21	2.7
Cc1c(C(=O)NCCCN2CCCC2=O)oc2ccccc12	-0.9
COc1ccc(S(=O)(=O)N2CCCC2C(=O)NCC(=O)Nc2cccc(Cl)c2C)cc1 (stereo unspecified)	0.5
O=c1[nH]c(CSc2nnc(-c3ccccc3)n2C2CCCCC2)nc2ccccc12	-1.5
COc1ccccc1C(=O)NC(C)c1nc2ccccc2[nH]1 (stereo unspecified)	0.5
CCOC(=O)C1C(c2cccs2)NC(=O)NC1(O)C(F)(F)F (stereo unspecified)	-1.9
CCCC(=O)N1CCN(c2ccc(NC(=O)c3ccco3)cc2)CC1	1.5
COc1ccc(OCCNC(=O)c2ccccc2OCC(=O)Nc2ccc(NC(C)=O)cc2)cc1	1.5
CC(NC(=O)Nc1cccc(F)c1)c1ccc2c(c1)OCO2 (stereo unspecified)	-3.0
Cc1cc(C)n(CCC(=O)Nc2ccc3c(c2)OCCO3)n1	3.9
COCCCNc1nnc(Cc2ccccc2)c2ccccc12	-1.9
O=C(Cn1c(=O)n(CC2CCCO2)c(=O)c2ccccc21)c1ccccc1 (stereo unspecified)	2.4
CC1(C)CC(=O)C=C(NNC(=O)c2ccc(N)cc2)C1	0.8
Nn1c(Cc2cccc3ccccc23)nnc1SCc1ccc(Cl)c(Cl)c1	-1.3
CCCOC(=O)c1c(NC(=O)C2C3C=CC(C3)C2C(=O)O)sc2c1CCC(C)C2 (stereo unspecified)	0.6
O=S(=O)(/C=C/c1ccccc1)n1cnc2ccccc21	-1.2
C=CCSc1nc2ccccc2n1C(=O)/C=C/c1cc(OC)c(OC)c(OC)c1	-7.6
CCC/C(O)=C1\C(=O)CC(C)(C)CC1=NCCO	-0.8
CCOc1cc(C(=O)NCC(C)CN(C)C)cc(OCC)c1OCC (stereo unspecified)	-1.3
Cc1ccc(NC(=O)N2CCC(NC(=O)C(C)(C)C)CC2)cc1	-0.9
CNC(=O)CSc1nnc(CCc2ccccc2)n1-c1ccccc1	2.1
O=[N+]([O-])c1ccccc1/C=N/NC1=NCCN1	-1.3
NC(Cc1ccc(O)cc1)c1cn([C@@H](CCC(=O)O)C(=O)N2CCNCC2)nn1 (stereo partly specified)	-0.3
O=C(O)C1C2CCC(O2)C1C(=O)Nc1ccc(F)c(Cl)c1 (stereo unspecified)	-1.2
CC(=O)Oc1ccc(N(C(C)=O)S(=O)(=O)c2ccc3ccccc3c2)cc1Br	-0.8
O=C(Nc1ccccc1)C(=O)Nc1ccc2c(c1)N(C(=O)C1CC1)CCC2	4.5
Nc1ccc2oc(-c3ccccc3Cl)cc(=O)c2c1O	1.2
O=C(Nc1ccc(Nc2ccccc2)cc1)C1CC1	1.3
COc1ccc(C(=O)COC(=O)CNC(=O)c2ccc(OC)cc2)cc1	-3.6
COC(=O)c1ccccc1NC(=O)C1CCCN(S(C)(=O)=O)C1 (stereo unspecified)	-0.9
CCOc1cc(C(=O)Nc2cc(C)ccn2)cc(OCC)c1OCC	0.6
CC1CCCC(N2CCN(C(=O)c3ccc([N+](=O)[O-])cc3)CC2)C1 (stereo unspecified)	-1.0
Cc1cccc(NC(=O)c2ccccc2NC(=O)C(C)(C)C)n1	-1.8
CCC(NC(=O)c1cc(COc2ccc(Cl)cc2OC)on1)c1ccncc1 (stereo unspecified)	-1.0
COC(=O)c1ccccc1NC(=O)CN1CCN(Cc2ccccc2)CC1	-0.6
O=C(c1ccccc1)N(Cc1cccc(Br)c1)C1CCS(=O)(=O)C1 (stereo unspecified)	0.7
O=C(CSc1ccccc1C(=O)O)c1ccccc1	-2.0
(next part)
SMILES	STK33 inh
O=C(Nc1ccc(-n2cccn2)cc1)C1CCN(Cc2ccsc2)CC1	-0.4
CCN(CC)c1ccc(C=C2C(=O)OC3(CCCC3)OC2=O)cc1	-1.4
O=C(O)c1ccccc1C(=O)Nc1ccc(S(=O)(=O)N2CCCC2)cc1	0.0
COc1ccc(NC(=O)C(CC(=O)O)Cc2ccc(Cl)cc2)cc1 (stereo unspecified)	-0.5
CCN(CC)c1ccc(NS(=O)(=O)c2ccc3c(c2)oc(=O)n3C)c(C)c1	0.6
COc1ccccc1N1CCN(S(C)(=O)=O)CC1	2.9
Cc1ccc(NC(=O)CN(C)C(=O)CSc2nnnn2C)cc1	-1.7
COc1ccc(CNC(=O)C/C(C)=N/NC(=O)c2cc(OC)cc(OC)c2)cc1	-0.4
CN(C)CC(=O)c1ccc(-c2ccccc2)cc1	0.0
CCN(C(=O)CN1C(=O)c2ccc([N+](=O)[O-])cc2C1=O)C1CCS(=O)(=O)C1 (stereo unspecified)	0.4
O=C(Cc1c(F)cccc1Cl)Nc1ccc(S(=O)(=O)N2CCOCC2)cc1	-1.2
Cc1cc(N2CCN(C)CC2)nc2ccc(NC(=S)NC3CC3)cc12	4.6
CCCC(=O)Oc1ccc(N(C(=O)CCC)S(=O)(=O)c2cccs2)cc1	0.4
CCCCOc1ccc(-n2nc(C)cc2C)nn1	-0.8
Fc1cccc(NC(=S)N2CCN(c3ccccn3)CC2)c1	0.0

20 entries from above, bar-delimited.
SMILES | STK33 inh
COC(=O)c1ccccc1NC(=O)C1CCCN(S(C)(=O)=O)C1 (stereo unspecified) | -0.9
CCOc1cc(C(=O)Nc2cc(C)ccn2)cc(OCC)c1OCC | 0.6
CC1CCCC(N2CCN(C(=O)c3ccc([N+](=O)[O-])cc3)CC2)C1 (stereo unspecified) | -1.0
Cc1cccc(NC(=O)c2ccccc2NC(=O)C(C)(C)C)n1 | -1.8
CCC(NC(=O)c1cc(COc2ccc(Cl)cc2OC)on1)c1ccncc1 (stereo unspecified) | -1.0
COC(=O)c1ccccc1NC(=O)CN1CCN(Cc2ccccc2)CC1 | -0.6
O=C(c1ccccc1)N(Cc1cccc(Br)c1)C1CCS(=O)(=O)C1 (stereo unspecified) | 0.7
O=C(CSc1ccccc1C(=O)O)c1ccccc1 | -2.0
O=C(Nc1ccc(-n2cccn2)cc1)C1CCN(Cc2ccsc2)CC1 | -0.4
CCN(CC)c1ccc(C=C2C(=O)OC3(CCCC3)OC2=O)cc1 | -1.4
O=C(O)c1ccccc1C(=O)Nc1ccc(S(=O)(=O)N2CCCC2)cc1 | 0.0
COc1ccc(NC(=O)C(CC(=O)O)Cc2ccc(Cl)cc2)cc1 (stereo unspecified) | -0.5
CCN(CC)c1ccc(NS(=O)(=O)c2ccc3c(c2)oc(=O)n3C)c(C)c1 | 0.6
COc1ccccc1N1CCN(S(C)(=O)=O)CC1 | 2.9
Cc1ccc(NC(=O)CN(C)C(=O)CSc2nnnn2C)cc1 | -1.7
COc1ccc(CNC(=O)C/C(C)=N/NC(=O)c2cc(OC)cc(OC)c2)cc1 | -0.4
CN(C)CC(=O)c1ccc(-c2ccccc2)cc1 | 0.0
CCN(C(=O)CN1C(=O)c2ccc([N+](=O)[O-])cc2C1=O)C1CCS(=O)(=O)C1 (stereo unspecified) | 0.4
O=C(Cc1c(F)cccc1Cl)Nc1ccc(S(=O)(=O)N2CCOCC2)cc1 | -1.2
Cc1cc(N2CCN(C)CC2)nc2ccc(NC(=S)NC3CC3)cc12 | 4.6

Continued:
SMILES	STK33 inh
CCc1ccc(NC2=CC(=O)CC(c3ccco3)C2)cc1 (stereo unspecified)	-0.3
CCOc1ccc(N/C=C/C(=O)c2cc(OC)c(OC)c(OC)c2)cc1	-0.1
COc1ccc(-c2cc(CNC(=O)CCl)on2)cc1	-0.3
Cc1ccc(-c2c(C(=O)NCc3ccccc3)oc(=O)c3ccccc23)cc1	-2.3
C/C(=N\NC(=O)c1nn(C)cc1Br)c1cccc(NC(=O)C2CCCC2)c1	-0.3
N#CC(c1ccc(F)cc1)c1ccc(C(=O)c2ccccc2)cc1 (stereo unspecified)	0.5
Nc1c(C(=O)Nc2cccc(F)c2)nnn1-c1ccc2c(c1)OCCO2	-0.4
Cc1ccc(NS(=O)(=O)c2ccc(-c3coc(C)n3)cc2)c(Br)c1	-5.3
CCOC(=O)[C@@H]1[C@H]2COc3ccc(Br)cc3[C@H]2N2C(=O)N(c3ccc(C)cc3)C(=O)[C@]12C	0.4
CCOC(=O)c1c(C)[nH]c(C)c1C(=O)COC(=O)CNC(=O)c1ccc(OCC)cc1	-0.7
COc1ccc2c(=O)c(Oc3ccc(C(=O)O)cc3)c(C(F)(F)F)oc2c1	-0.4
COc1cccc2sc3ccc(C#Cc4ccc(N)cc4)cc3c(=O)c12	-0.7
CCOc1cc(N2CCOCC2)c(OCC)cc1NC(=O)CSc1nccc(C)n1	-1.2
COc1ccc(NC(=O)C(=O)c2cn(CC(=O)N3CCCC3)c3ccccc23)cc1	0.5
CC1CCN(S(=O)(=O)c2ccc(C(=O)OC(C)C(=O)NC3CCCCC3C)cc2)CC1 (stereo unspecified)	-0.3
CCCCCC1(C)NC(=S)N(c2ccccc2)N1 (stereo unspecified)	-0.1
CC(C)c1ccc(COc2ccc(C(=O)N3CCOCC3)cc2)cc1	-0.1
CCOC(=O)C1(Cc2ccccc2)CCN(Cc2csc(C(C)=O)c2)CC1	0.8
CCN1CCSc2ccc(C(=O)NCc3cccc(Br)c3)cc21	-0.3
COc1ccc(/C=N/NC(=O)CNc2n[nH]c(=O)[nH]c2=O)cc1OC	-0.6
CCOc1ccc(CCNC(=O)COC(=O)Cc2ccc(OC)c(OC)c2)cc1OCC	-0.7
CN(Cc1cccs1)C(=O)Cc1c[nH]c2ccccc12	-1.3
Cc1cccc(OCC(O)CN2CCOCC2)c1 (stereo unspecified)	-1.8
Cc1cc2c(cc1C)-c1c(ssc1=Nc1ccc(S(N)(=O)=O)cc1)C(C)(C)N2	-1.4
CC1(C)Nc2ccccc2C(=O)N1c1ccc(Br)cc1	-0.5
O=C(NCC1CCCO1)c1ccc2c(=O)n(-c3ccccc3)c(=S)[nH]c2c1 (stereo unspecified)	-1.5
COc1ccc(CNC(=O)[C@H](C)[C@@H]2C[C@@]2(C)[C@@H](NC(=O)OCc2ccccc2)c2ccccc2)cc1OC	0.7
CCCS(=O)(=O)NCc1cn2cccc(C)c2n1	-3.1
Cc1csc2c(=O)[nH]cnc12	-0.3
Cc1cnc(C(=O)NCC(c2ccccc2)c2ccccc2)cn1	-2.2
CCOc1cc(NC(=O)c2cccs2)c(OCC)cc1NC(=O)c1cccnc1	-0.2
CN(C(=O)COC(=O)/C=C/c1ccc(C(F)(F)F)cc1)c1c(N)n(Cc2ccccc2)c(=O)[nH]c1=O	-0.3
CCCN(CC(=O)Nc1ccc(Cl)cc1Cl)C(=O)CC(NC(C)=O)c1ccccc1 (stereo unspecified)	-1.8
O=C(NC1CCCCC1)N(Cc1cc2cc3c(cc2[nH]c1=O)OCCO3)CC1CCCO1 (stereo unspecified)	0.5
O=C(CN1CCN(Cc2ccc(F)cc2Cl)C1=O)NCc1cccs1	2.0
COC(=O)C(C)N(C(=O)c1cccc(Cl)c1)c1c(C)cccc1C (stereo unspecified)	-1.4
O=C(Nc1ccc(N2CCOCC2)cc1)c1cc(-c2ccncc2)nc2ccccc12	-0.6
O=C(CSc1nc2ccccc2s1)Nc1cc(C(=O)O)cc(C(=O)O)c1	-1.2
O=C(COC(=O)c1cncc(Br)c1)NCCC1=CCCCC1	-1.7
CCC(C)(C)NC(=O)CN(C(=O)c1snc(C(N)=O)c1N)c1ccc2c(c1)OCCO2	1.1
CCn1ncc(Cl)c1C(=O)Nc1ccc2c(c1)CCC2	-0.3
COc1ccc(CC(NC(C)=O)C(=O)NC2CCN(C(=O)Nc3ccc(Cl)cc3)CC2)cc1OC (stereo unspecified)	0.3
CC(NC(=S)NCCN1CCOCC1)C12CC3CC(CC(C3)C1)C2 (stereo unspecified)	-1.0
CSc1ccccc1NC(=O)c1ccc(Cl)s1	0.0
CC1(C)S[C@@H]2[C@H](NC(=O)[C@H](N)c3ccc(O)cc3)C(=O)N2[C@H]1C(=O)O	-1.3
O=C1C2C3C=CC(C3)C2C(=O)N1c1cccnc1 (stereo unspecified)	0.5
CCOc1ccc(CNC(=O)Cn2ccc3cc(S(=O)(=O)N4CCCC4)ccc32)cc1	-0.5
COc1ccccc1-c1noc(CCC(=O)NC2CCCC2)n1	-4.8

Some of the compounds tested, and most or all hits are left out here.
